Compound activity: PubChem BioAssay, National Center for Advancing Translational Sciences (NCATS)
D2 agonist = human D2 receptor agonism in beta-arrestin assay; P14416; DiscoveRx PathHunter D2 beta-arrestin, luminescence, 90 min; 100% = 57 uM dopamine signal; activation, % (test concentration not listed); 360,000 compounds, 0.084% hits; AID 624465; in the data active = activation above about 40%; inconclusive = about 15% to 40%; inactive = below about 15%; also: compound concentration not given in the record; the text of the record calls up to 30% inactive
Target sequence (P14416 whole entry, looked up): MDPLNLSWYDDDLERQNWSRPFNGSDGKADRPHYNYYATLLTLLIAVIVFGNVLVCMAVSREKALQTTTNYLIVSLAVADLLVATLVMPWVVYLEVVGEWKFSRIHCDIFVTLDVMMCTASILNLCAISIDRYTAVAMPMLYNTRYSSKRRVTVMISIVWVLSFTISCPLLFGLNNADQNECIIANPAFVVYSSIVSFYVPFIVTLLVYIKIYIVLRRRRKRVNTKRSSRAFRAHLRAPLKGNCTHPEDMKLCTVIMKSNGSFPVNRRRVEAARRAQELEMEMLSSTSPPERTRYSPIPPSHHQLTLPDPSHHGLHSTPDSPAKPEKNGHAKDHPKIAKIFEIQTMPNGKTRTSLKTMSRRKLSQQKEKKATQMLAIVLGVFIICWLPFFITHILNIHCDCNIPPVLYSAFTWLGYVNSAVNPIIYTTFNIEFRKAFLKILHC
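Agonist mode: compounds alone added to overnight-plated D2 PathHunter cells for 90 min at 37 C, with 57 uM final dopamine (EC100) defining full response. Beta-arrestin recruitment detected by chemiluminescent reagent, read after 1 h at ambient temperature.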
TRPML1 blocker = inhibitors of human TRPML1 channel. TRPML1-inducible cells, Ca2+ dye fluorescence, FDSS; hits give low values; inhibition of EC80 agonist-evoked calcium signal. activity change, negative = inhibition, % (test concentration not listed). 390,000 compounds, 0.02% hits. AID 624415; in the data active means activity change below about -50%; inconclusive means about -30% to -50%; inactive means above about -30%;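 also: stimulus is agonist 54-4 at its EC80 concentration; % is scaled to controls: 0 for no effect and ±100 for the full control effect; compound concentration not given in the record; the text of the record puts the active cut at -80%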
Target sequence (Q9GZU1 whole entry, looked up): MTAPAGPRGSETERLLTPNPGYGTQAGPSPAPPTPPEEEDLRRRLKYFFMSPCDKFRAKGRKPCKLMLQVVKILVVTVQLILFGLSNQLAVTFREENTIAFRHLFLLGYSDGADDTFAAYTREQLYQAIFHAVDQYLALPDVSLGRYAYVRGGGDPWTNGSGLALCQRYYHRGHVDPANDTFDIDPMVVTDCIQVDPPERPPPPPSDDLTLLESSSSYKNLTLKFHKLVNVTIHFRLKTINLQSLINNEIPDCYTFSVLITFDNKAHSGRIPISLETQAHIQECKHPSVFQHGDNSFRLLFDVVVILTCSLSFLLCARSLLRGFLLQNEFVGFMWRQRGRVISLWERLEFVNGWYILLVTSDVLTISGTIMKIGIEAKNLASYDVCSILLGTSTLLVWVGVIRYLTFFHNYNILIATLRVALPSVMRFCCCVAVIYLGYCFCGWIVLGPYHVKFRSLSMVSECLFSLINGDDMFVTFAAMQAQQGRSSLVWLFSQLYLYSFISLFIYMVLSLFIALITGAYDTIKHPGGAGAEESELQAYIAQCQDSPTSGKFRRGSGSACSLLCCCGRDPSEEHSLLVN
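TRPML1-DL cells, Tet-induced overnight (~16 h, 37 °C) at 1,500 cells/well, were loaded with Ca8 no-wash dye plus quencher for 45-90 min at room temperature. Compounds were pinned during FDSS kinetic reading; agonist 54-4 at EC80 (4 uM final) then added.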
TRPML1 ag = human mucolipin-1 channel agonism; Q9GZU1; TRPML1-expressing cells, Ca2+ dye fluorescence, FDSS; host cell line not named in the record; reference of the full effect not given here; activation, % (no concentration beside the values); 410,000 compounds, 0.12% hits; AID 624414; in the data active = activation above about 50%; inconclusive = about 30% to 50%; inactive = below about 30%; also: 0% is about no effect; the text of the record puts the active cut at 80%
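Kinetic FDSS Ca2+ read in Tet-induced TRPML1-DL cells (ABD Ca8 dye plus quencher, 45-90 min RT loading): baseline, then compound, then 110 s agonist window; EC80 agonist 54-4 at 4uM final added afterwards for a 110 s antagonist window.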
PINK1 modulator = modulators of PINK1 expression; Potency, µM (series often up to 76.6 µM), without a hit: top-dose activation (PINK1 increase), hits mostly activators; PINK1 immunofluorescence, high-content cytometry, 24 h; 410,000 compounds, 0.2% hits; AID 624263; active = well fitted activation curve with a large enough effect; inconclusive = small, poorly fitted or top-dose-only effect; inactive = flat fitted curve, though single readings scatter; cell line not stated here;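 also: potency is read from the fitted curve at half-maximal effect; % of control where 0% means no effect; nearly all actives have a fitted effect of over 65% in size; a mitochondrial uncoupler was the plate control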
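A stable cell line was treated with compounds at 5 concentrations for 24 hours, with CCCP as control. PINK1 levels and mitochondrial localization were measured by immunofluorescence with mitochondrial, cell and nuclear markers after fixation, read by laser-scanning cytometry.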
CtBP-E1A inh = inhibitors of CtBP/E1A interaction; AlphaScreen GST-E1A/His-CtBP binding, 1536-well; hits give low values; control for the full effect not named in the record; activity change, % (concentration not given with the values); 340,000 compounds, 0.49% hits; AID 651724; in the data active means activity change below about -65%; inconclusive means about -30% to -65%; inactive means above about -30%; also: % is scaled to controls: 0 for no effect and ±100 for the full control effect
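Protein mix (5X: 125 nM each GST-E1A, His-CtBP) was incubated with pinned compound 2 h at 37 deg C in dark, in 50 mM Tris pH 8.0 buffer with 300 mM NaCl. Glutathione donor and nickel acceptor beads followed; AlphaScreen signal read after 1 h.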
Six1-Eya2 blk = Six1/Eya2 interaction inhibition; Q15475+O00167; AlphaScreen GST-Six1/His-Eya2 binding, biochemical; hits give low values; control for the full effect not named in the record; activity change, % (test concentration not listed); 360,000 compounds, 0.56% hits; AID 651725; in the data active = activity change below about -65%; inconclusive = about -30% to -65%; inactive = above about -30%; also: % is scaled to controls: 0 for no effect and ±100 for the full control effect
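Six1/Eya2 binding was read as AlphaScreen signal after compounds were pinned into GST-Six1 plus His-tagged Eya2 (5X stock 250/500 nM) in pH 8.0 Tris/NaCl/TCEP buffer, beads added, then incubated 1 h, 37 C, dark.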
The depositor's hits bear a star; ? = inconclusive; · = not tested or not shown; & = joins results of further samples; [ ] = dose if it differs, or a comment.

SMILES | D2 agonist | TRPML1 blocker | TRPML1 ag | PINK1 modulator | CtBP-E1A inh | Six1-Eya2 blk
CN1C(=O)c2ccc(S(=O)(=O)c3ccc(C(=O)O)cc3)cc2C1=O | -0.4 | 4 | 0.5 | · | 3 | 0
O=C(O)/C(=C\c1ccc2ccccc2c1)c1cccc2ccccc12 | -1.1 | -26 | -0.5 | 0.8% | · | -2
O=C(Cn1nc(C(=O)O)c2ccccc2c1=O)Nc1cccc(S(=O)(=O)N2CCOCC2)c1 | -2.6 | 14 | 0.9 | -1.3% | -5 | -16
Cn1c(SCC(=O)N2CCN(c3cccc(Cl)c3)CC2)nnc1-c1ccncc1 | -2.6 | -4 | -0.6 | 2.5%[38.3 µM] | 9 | 4
CC1(C)Nc2ccccc2C(=O)N1NC(=O)c1ccccc1 | 0.7 | -19 | 0.6 | 1.4% | · | 2
COC(=O)Cc1c(-c2[nH]c3ccccc3c2CC(=O)OC)[nH]c2ccccc12 | -14 | -8 | 2.6 | 15% | -5 | -3
CC(C)CNC(=O)C1CCN(c2ccc(S(=O)(=O)N3CCOCC3)cc2[N+](=O)[O-])CC1 | -1.1 | 10 | 0.1 | 2.1% | · | 2
O=C(NCc1ccncc1)C1CCCCC1 | -0.2 | -5 | 1.6 | ? | 0 | 11
CN(CC(=O)Nc1ccc(F)cc1)C(=O)c1ccc2ccccc2n1 | -3.6 | -18 | 0.6 | 1.6% | -7 | 8
O=C(NC1CCCC1)c1ccc(CSCc2ccccc2F)o1 | -2.6 | -12 | 4.2 | -0.9%[38.3 µM] | -2 | 1
O=C(Oc1c(CN2CCOCC2)cc(Cl)c2cccnc12)c1ccccc1 | 0.2 | 14 | 0.1 | -1.3% | -78* | ?
CCCC(=O)N1CCN(c2ccc(NC(=O)c3ccc([N+](=O)[O-])o3)cc2Cl)CC1 | 11 | 16 | 1.4 | 0.4% | 25 | -5
CC1CCN(C(=O)C2Cc3ccccc3CN2S(=O)(=O)c2ccc(F)cc2)CC1 (configuration not stated) | 1.1 | -11 | 3.7 | -0.9% | -4 | 2
Cc1c(Cl)c([N+](=O)[O-])nn1CC(=O)NCc1cccs1 | 1.2 | 8 | -0.3 | -2.0% | 6 | 4
CC(=O)Nc1nc(-c2ccc3c(c2)OCO3)cs1 | 3.7 | · | · | 3.9% | -3 | -5
Cc1c(NC(=O)c2cnn3cccnc23)c(=O)n(-c2ccccc2)n1C | -1.0 | -5 | 0.1 | 2.2% | 0 | 18
CC(C)(C)OC(=O)N(Cc1ccccc1)Cc1ccccc1OCc1cccc(NC(=O)C2CCC2)c1 | -1.3 | -11 | 2.9 | -1.3% | 8 | -1
COc1ccc(S(=O)(=O)N2CCC(C(=O)Nc3c(F)cccc3F)CC2)cc1 | -1.6 | -2 | -0.4 | -0.2% | -3 | 0
O=C(NC1CCN(Cc2ccccc2)CC1)C12CC3CC(CC(C3)C1)C2 | -2.1 | -12 | 4.1 | -1.7% | 3 | 2
COc1ccc(OC)c2c1nc1n2CCS1 | 1.6 | 6 | 1.1 | 1.3% | -3 | -6
Cc1ccc(CNCCCn2cnc(C(=O)Nc3ccc(C)c(C)c3)n2)o1 | -1.7 | 25 | 0.0 | -0.9% | -2 | -10
Cc1ccc(CSc2ncc(Cl)c(C(=O)Nc3sc4c(c3C(N)=O)CCCC4)n2)cc1 | · | -21 | 1.9 | 4.1% | · | ·
C=CCn1c(SCC(=O)Nc2ncc(Cc3cc(C(F)(F)F)ccc3Cl)s2)nnc1-c1ccncc1 | 1.8 | -8 | 0.3 | -0.3%[38.3 µM] | 6 | 5
Cc1csc(C(=O)O)c1-n1cccc1 | -1.0 | -2 | 2.1 | -1.2% | 7 | -2
COc1ccc2c(C)cc(=O)sc2c1 | -3.6 | -6 | 0.0 | -0.8% | 4 | 7
CCOc1ccc(-c2cc(CCCC(=O)N3CCN(c4ccc(OC)cc4)CC3)no2)cc1 | -3.0 | 2 | -0.1 | 2.1% | -29 | -6
CCc1ccc2c(c1)NC(=O)C2(C)Cc1ccccc1C#N (configuration not stated) | 2.9 | 7 | 0.5 | 6.2% | -10 | 6
COc1c(OC2OC(C(=O)O)C(O)C(O)C2O)cc(O)c2c(=O)cc(-c3ccccc3)oc12 (configuration not stated) | -2.8 | -6 | -0.5 | 1.9% | -19 | -7
C[C@H]1CCC(=O)N([C@H](CSc2ccc(Br)cc2)Cc2ccccc2)CC1 | -2.5 | 73 | 0.9&-0.2 | 18% | 1 | -1
CCOC(=O)c1oc2ccc(S(=O)(=O)n3nc(-c4cc(OC)cc(OC)c4)cc3N)cc2c1C | · | -14 | 0.1 | 1.0% | · | ·
Cc1ccc(-n2c(-c3nn(C)cc3Cl)n[nH]c2=S)cc1 | -1.5 | 24 | 0.4 | 1.6% | 3 | 2
Cc1cc(C)n2nc(C(=O)OCC(=O)c3c[nH]c4ccccc34)nc2n1 | -4.8 | -6 | 0.7 | 2.6% | · | -7
C=COCCNC(=S)Nc1cccc(Cl)c1 | 2.1 | 10 | 1.9 | 1.0% | -16 | -7
CCc1ccc(NC(=O)CCc2c(C)nn(-c3ccc(N4CCOCC4)nn3)c2C)cc1 | -0.2 | -4 | -0.2 | 2.0% | · | 2
S=c1[nH]nc(COc2ccccc2)n1/N=C/c1ccc(Cl)c(Cl)c1 | 7.4 | 12 | 1.2 | 2.4% | -4 | -3
COc1ccccc1C(=O)NC(=O)CSc1nncn1C | -5.5 | 1 | -0.1 | 1.2% | 0 | 5
CCOC(=O)C(C(=O)OCC)c1cc(Br)c2noc3c2c1C(=O)c1ccccc1-3 | 9.6 | -7 | 3.7 | 0.7% | -16 | -10
CN1CCN(C2CN(Cc3cn(Cc4ccccc4)nn3)S(=O)(=O)C2)CC1 (configuration not stated) | · | · | -0.7 | 1.1% | -12 | 9
COc1ccc(C(=O)c2oc3ccccc3c2NC(C)=O)cc1 | -1.0 | 18 | 2.4 | 4.7% | 9 | 12
CCOC(=O)CS(=O)(=O)c1ccc(C(F)(F)F)cn1 | 3.3 | 1 | 1.2 | -0.6% | 5 | -4
CCC(C)c1ccccc1NC(=O)c1cccnc1 (configuration not stated) | 0.3 | 5 | 2.7 | -0.5%[38.3 µM] | 1 | 5
CN(CC(=O)N1CCc2ccccc2C1)c1ccccc1 | -2.7 | -7 | 1.4 | -0.5% | 4 | -13
Cc1nc(SCCOc2ccccc2F)[nH]c(=O)c1Cc1ccccc1 | 0.0 | 24&13 | 0.9&1.6 | 7.4%&0.7% | 7 | 1
O=C(COc1ccccc1)NCCc1csc(-c2ccc(F)cc2)n1 | · | -4 | 1.4 | 1.7% | · | ·
OCc1cn(-c2ccc(Cl)cc2)nn1 | -3.2 | 27 | 0.3 | -1.4% | 1 | 6
CC1=C(C(=O)Nc2ccc(Cl)cc2)C(c2ccc(C(F)(F)F)cc2)n2nnnc2N1 (configuration not stated) | · | 3 | 1.2 | 1.1% | · | ·
O=C(/C=C/c1ccco1)NCC1(c2ccccc2)CCCC1 | -3.3 | 4 | 0.6 | -0.5% | 7 | -10
Cn1c(-c2sccc2OCc2ccc(Cl)cc2Cl)n[nH]c1=S | 3.7 | -1 | 0.2 | 1.8% | · | -5
CC(=O)c1cccc(-n2nnnc2SCC(=O)Nc2ccccc2N2CCCCC2)c1 | 0.6 | 53 | 3.3 | -2.3% | -5 | -2
CN(C(=O)CC1C(=O)NCCN1Cc1cccc(F)c1F)C1CC(C)(C)NC(C)(C)C1 (configuration not stated) | -2.4 | 12 | 0.3 | -0.9% | 4 | 4
Cc1cc(C)nc(NC(=O)c2c(Cl)cccc2Cl)n1 | -3.8 | -3 | 0.4 | 2.1% | -20 | 8
Fc1cc(F)c2nc(N3CCCCC3)sc2c1 | 0.2 | -6 | 0.8 | 0.5% | 8 | 18
COc1ccc(C2SC[C@@H](C(=O)O)N2C(C)=O)cc1 (some centres not stated) | -2.2 | -11 | -0.6 | -1.4% | 0 | 2
O=C(Nc1ccccc1Cl)c1ccc(C(=O)Nc2ccccc2Cl)cc1 | -1.1 | 1 | 0.3 | -1.8% | 0 | 16
CCOc1ccccc1NC(=O)c1c(NC(=O)CCC(=O)O)sc2c1CCCCC2 | -1.8 | -2 | -0.1 | -1.1% | -12 | -6
CN1C(C)(C)CC(O)(C(=O)O)CC1(C)C | -5.6 | · | -0.3 | 2.0% | 3 | 10
O=C(NCCCN1CCCC1)c1[nH]c(C(F)(F)F)nc1-c1ccccc1 | 3.2 | · | -0.2 | -0.9% | -17 | -5
COc1ccc(OCCC(=O)OCC(=O)Nc2ccc(S(=O)(=O)N3CCOCC3)cc2)cc1 | -2.8 | -9 | -0.8 | -3.4% | -26 | -1
COc1cccc(CNC(=O)CSCc2cnn(-c3ccccc3)c2-n2cccc2)c1 | -0.5 | 6 | 2.5 | -1.3% | -3 | -13
O=C(NCCCO)c1ccc2[nH]c3c(c2c1)CCCC3 | 2.8 | -25 | 1.0 | 1.8% | -2 | -8
(cont.)
SMILES | D2 agonist | TRPML1 blocker | TRPML1 ag | PINK1 modulator | CtBP-E1A inh | Six1-Eya2 blk
O=C1c2cccnc2C(O)N1Cc1ccccc1 (configuration not stated) | -2.3 | -7 | 2.7 | 3.4%[38.3 µM] | 7 | 3
Nn1c(SCc2ccccc2F)nnc1-c1cccnc1 | -4.5 | 27 | 1.0 | 1.5% | 6 | 2
C[C@H](CO)N1C[C@H](C)[C@@H](CN(C)S(=O)(=O)c2ccccc2)Oc2ccc(NS(=O)(=O)c3ccc(F)cc3)cc2C1=O | -1.3 | -13 | 1.0 | -0.9% | 0 | -2
CCN1CCN(C(=O)Cn2c(-c3cccs3)cc3ccccc32)CC1 | · | 9 | 0.7 | 1.1% | · | ·
O=C(CN(Cc1ccccc1)S(=O)(=O)c1ccc2c(c1)OCCO2)N/N=C/c1ccc(F)cc1 | 1.9 | 1 | 1.9 | 5.7%[38.3 µM] | 2 | -27
O=C(CNc1cc(S(=O)(=O)N2CCOCC2)ccc1NCC1CCCO1)Nc1cccc(F)c1 (configuration not stated) | -2.2 | 38 | -0.3 | 1.6% | -16 | -1
Cc1ccc(C(=O)Nc2ncc(C)s2)s1 | -2.7 | 3 | 0.3 | 3.0% | 1 | 7
CCOC(=O)C(C(=O)NCc1cccc(OC)c1)c1ncc(C(F)(F)F)cc1Cl (configuration not stated) | -2.1 | 5 | 0.0 | 9.1% | 2 | -9
COc1ccc(Nc2cc(C(=O)NCc3ccco3)c3ccccc3n2)c(OC)c1 | -8.1 | -7 | 0.9 | 2.2% | -14 | ?
COC(=O)c1cnn(-c2ccccc2)c1C(OC)OC | -7.2 | -6 | 0.2 | 1.7% | -19 | -5

Structures listed above that bear a hit mark in CtBP-E1A inh:
Structure | D2 agonist | TRPML1 blocker | PINK1 modulator | CtBP-E1A inh | Six1-Eya2 blk
O=C(Oc1c(CN2CCOCC2)cc(Cl)c2cccnc12)c1ccccc1 | 0.2 | 14 | -1.3% | -78* | ?
